HCMV UL50-53 inh: cytomegalovirus nuclear egress complex inhibition. HTRF UL50-UL53 interaction, normalized percent inhibition. inhibition, % (concentration not given with the values). 190,000 tested, 0.15% active;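 active = both replicates at 50% or more, plus weaker picks with an unusually low signal ratio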;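 also: stock transfer was 100 nL into about 20 µL; 0% = negative control wells and 100% = wells with untagged competitor protein; inactives centre near -12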
GIV-Gai inh: inhibitors of GIV GBA-motif binding to rat Galpha-i3 | Galpha-i3/FITC-GIV peptide fluorescence polarization, 90 min; stronger effect = lower value; scaled: aluminum fluoride 0%, vehicle 100% | P08753 | 210,000 tested, 0.42% active | percent of control (FP), % (no concentration beside the values);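 active = replicate mean at 85% of control or lower, very high polarization wells dropped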;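 also: wells of about 15 µL received 100 nL stock; the first replicate is given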
Target sequence (P08753 whole entry, looked up): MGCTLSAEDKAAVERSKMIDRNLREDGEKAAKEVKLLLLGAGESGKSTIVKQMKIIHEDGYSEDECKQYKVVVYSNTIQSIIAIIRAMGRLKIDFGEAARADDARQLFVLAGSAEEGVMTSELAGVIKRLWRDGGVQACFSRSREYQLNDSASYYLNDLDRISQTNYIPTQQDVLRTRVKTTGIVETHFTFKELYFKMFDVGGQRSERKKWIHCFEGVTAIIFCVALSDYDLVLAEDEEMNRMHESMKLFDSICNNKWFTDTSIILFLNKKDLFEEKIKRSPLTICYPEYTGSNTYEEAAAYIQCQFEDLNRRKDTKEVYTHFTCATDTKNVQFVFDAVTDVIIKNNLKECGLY
Sa growth inh: blocks Staphylococcus aureus growth; relative growth, % (test concentration not listed); 170,000 tested, 0.53% active; S. aureus RN4220 growth, OD600, 20 h, 42 °C; stronger effect = lower value;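 active = growth at 42 °C up to 50% and 20 or more points under that at 30 °C, or under 10% at both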;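 also: 300 nL library stock went into each well; scaled to the means of positive and negative controls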
Sa growth inh second temp: second read-out of Sa growth inh, no call of its own (marks repeat the call); relative growth, %; measured here: growth at 30 °C;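 optical density after 20 h as mean of two plates; 100% = untreated growth and lower means inhibition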
* marks the source's active call; other numbers are inactive results; · = not tested or not shown; & = joins results of further samples. An unsorted share of the library; overall some 0.8% were active at least once.

SMILES	HCMV UL50-53 inh	GIV-Gai inh	Sa growth inh	Sa growth inh second temp
CC(C)OC(=O)CCC/C=C\C[C@@H]1[C@@H](CC[C@@H](O)CCc2ccccc2)[C@H](O)C[C@@H]1O	-34	105	88&89	77&74
Cc1cccc(NC(=O)Cn2cc(C(=O)c3ccco3)c3ccccc32)c1C	-52	104	83	81
COc1ccccc1CNS(=O)(=O)c1cc2c3c(c1)CCN3C(=O)CC2	·	104	91	97
COc1ccccc1CN1CC(C(=O)NCC2CCCO2)CC1=O (stereo not drawn)	6	100	102	94
O=C1NC(=O)C(c2ccccc2)(c2ccccc2)N1	-24&-32&10&-3&-7&-69&-22	106&107&108	92&97&107	80&95&92
CCNc1oc(-c2ccc(S(=O)(=O)N3CCCC(C)C3)cc2)nc1C#N (stereo not drawn)	-31	102	·	·
CCCCSc1nnc2c(n1)OC(c1ccco1)Nc1ccccc1-2 (stereo not drawn)	-41	109	·	·
Cc1nccn1CCC1CCNCC1	-25	103	85	73
Cc1c(NC(=O)NNc2ccccc2)sc2nc(-c3ccc(Cl)cc3)nn12	-27	99	99	78
O=S(=O)(c1ccc(SC2Cc3ccccc3C2O)nc1)N1CCOCC1 (stereo not drawn)	-14	·	72	92
CCCOC(=O)c1ccc(N=Cc2ccc(C)s2)cc1	-8	·	108	86
CC(C)CCNC(=O)CN1C(=O)CCn2nc(-c3cn(C)c4ccccc34)cc21	·	109	108	81
CN(n1cnc2ccsc2c1=O)S(=O)(=O)c1cc(C(F)(F)F)cc(C(F)(F)F)c1	-29	108	86	93
CC(C)C(c1nnnn1Cc1ccccc1)N1CCCc2ccccc21 (stereo not drawn)	-11	104	108	95
Cc1ccc(NC(=O)c2oc3ccc(S(=O)(=O)N4CCCCCC4)cc3c2C)c(C)c1	·	103	113	99
Cc1nn2c(=O)cc(COc3ccc(-c4nc5sc6c(c5c(=O)[nH]4)CCCC6)cc3)nc2s1	1	101	·	·
COc1ccc(N2CCN(CCCNC(=O)NC3CC(=O)N(c4ccc5c(c4)OCCO5)C3)CC2)cc1 (stereo not drawn)	-4	107	123	96
CCC(C)(C(=O)NC1CCCC1)N(C(=O)CC1NC(=O)NC1=O)c1c(C)n(C)n(-c2ccccc2)c1=O (stereo not drawn)	-21	104	95	93
COc1cc2[nH]c(=O)n(CCCC(=O)N3CCC(Cc4ccccc4)CC3)c(=O)c2cc1OC	-5	108	·	·
CCCN=C(C)c1c(CCC)[nH]n(-c2nc3ccccc3s2)c1=O	-36	102	·	·
COc1ccc(Cl)cc1NC(=O)N1CCN(c2nnc(C)c3c(C)n(-c4ccccc4)nc23)CC1	-11	105	·	·
Oc1ccc2c(CN3CCCCC3)c(O)ccc2c1CN1CCCCC1	-9	·	124	90
CC(C)Oc1cccc(C2CC(=O)Nc3cc4c(cc32)OCO4)c1 (stereo not drawn)	3	105	122	95
O=C(O)CCC(=O)Nc1ccc(Oc2ccccc2)cc1	-10	95	102	90
N#CCCN(Cc1ccccc1)C(=O)c1nccnc1C(=O)O	-16	101	97	95
N#CCCn1c(SCC(=O)Nc2cccc3ccccc23)nc2ccccc21	-31	·	101	77
CC1CSc2ccc(S(=O)(=O)N3CCCC3)cc2N(CC(=O)NCC2CCCO2)C1=O (stereo not drawn)	-11	101	·	·
CCOc1ccc(OCCCCn2ccnc2)cc1	-8	99	120	80
COc1ccc2[nH]cc(CCNC(=O)Cn3nc(C)c4c(C)onc4c3=O)c2c1	6	104	·	·
CCOC(=O)N1CCC(NC(=O)Nc2ccc3c(c2)CCO3)CC1	-27	102	86	92
COc1ccc(CNC(=O)[C@@H]2CCCN2C(=O)OC(C)(C)C)cc1OC	10	·	106	94
O=S(=O)(Nc1ccncc1)c1ccc2ccccc2c1	-25	·	88	87
Brc1ccc(-c2noc(-c3ccccc3)n2)o1	-7&-29	106&100	90&113	91&91
COc1ccc(NS(=O)(=O)c2ccc3c4c(cccc24)C(=O)S3)cc1	·	102	77	76
COc1ccc(N2CCN(C(c3ccccc3F)c3sc4nc(-c5ccco5)nn4c3O)CC2)cc1 (stereo not drawn)	·	96	95	86
Cc1ccc(NC(=O)CSc2nc(C)cc(C)c2C#N)cc1	1	96	93	82
CCOC(=O)c1c(-c2ccccc2)oc2ccc(OCc3ccc(C)cc3)cc12	-23	105	96	87
CC(=O)N1c2ccccc2C(=O)C1N1CCN(c2ccc(F)cc2)CC1 (stereo not drawn)	·	106	95	86
Cc1ccc2oc(C(=O)Nc3c(C(=O)Nc4cccc(Cl)c4)oc4ccccc34)cc(=O)c2c1	-33	108	106	88
CCNc1ccc(-c2nc(-c3ccco3)no2)cc1[N+](=O)[O-]	-28	98	98	84
COc1ccc(C(CC(=O)c2cccs2)SCc2ccco2)cc1OC (stereo not drawn)	1	·	113	92
CCC(=O)N1CCC2(CC1)Nc1ccccc1-n1cccc12	-40	109	·	·
Cn1ccnc1SCC(=O)Nc1ccc(Br)cn1	5	109	·	·
O=C(/C=C/NCc1ccccc1)c1ccc(Br)cc1	-41	·	97	91
CCC(SC1=Nc2ccccc2C2=NC(c3ccccc3)C(=O)N12)C(=O)NCc1ccco1 (stereo not drawn)	-25	102	95	79

Quoted at random: 4 records from the list.
SMILES	HCMV UL50-53 inh	GIV-Gai inh	Sa growth inh	Sa growth inh second temp
Brc1ccc(-c2noc(-c3ccccc3)n2)o1	-7&-29	106&100	90&113	91&91
CC(=O)N1c2ccccc2C(=O)C1N1CCN(c2ccc(F)cc2)CC1 (stereo not drawn)	·	106	95	86
COc1ccc(NS(=O)(=O)c2ccc3c4c(cccc24)C(=O)S3)cc1	·	102	77	76
Cc1ccc2oc(C(=O)Nc3c(C(=O)Nc4cccc(Cl)c4)oc4ccccc34)cc(=O)c2c1	-33	108	106	88

(further entries)
SMILES	HCMV UL50-53 inh	GIV-Gai inh	Sa growth inh	Sa growth inh second temp
Cc1nc2ccccc2c2c1C(=O)N(c1ccc(C(=O)OCC(=O)c3ccc(Cl)cc3)cc1)C2=O	12	97	·	·
COc1ccc(/C=C2\Cc3ccccc3C2=O)cc1	·	105	125	82
CC1=C(C(=O)OCCOc2ccccc2)C(c2coc3ccc(Cl)cc3c2=O)C2=C(CC(C)(C)CC2=O)N1 (stereo not drawn)	-21	104	·	·
COc1ccccc1NC(=O)C(C)NS(=O)(=O)c1ccccc1 (stereo not drawn)	-4	107	118	104
CCN(CC)c1nc(-c2cccs2)c(C(=O)c2ccc(N3C(=O)CCC3=O)cc2)s1	-17	·	96	91
CC(C)(C)c1ccc(-c2cc3ncc(-c4ccccc4)c(N)n3n2)cc1	·	107	94	80
COc1cc(NC(=O)CSc2c3c(nc4ccccc24)CCC3)cc(OC)c1OC	-17	106	96	94
COc1ccccc1Nc1nnc(-c2ccc(OC(C)C)c(OC)c2)o1	-26	·	86	84
CC1CCN(S(=O)(=O)c2ccc3c(c2)N(CC(=O)N2CCc4ccccc42)C(=O)CC(C)S3)CC1 (stereo not drawn)	1	107	·	·
CCOC(=O)c1cc(C(=O)OCC)c(=S)[nH]c1O	-29	103	100	66
CCCOc1nnc(-c2ccc(C)cc2)c2ccccc12	-16	112	·	·
CSC(=Nc1cc(-c2ccccc2)[nH]n1)Nc1ccccc1	·	102	91	58
COC(=O)c1cnc(N2CCN(c3ccccc3)CC2)c2ccccc12	-11	98&106	98	89
Cc1cc(CNC(=O)c2cnc3ccccc3n2)c(C(F)(F)F)o1	-49	105	102	87
O=C(c1ccccc1)C1(C(=O)c2ccccc2)CC1c1ccccc1 (stereo not drawn)	42	105	118	102
COc1ccc(-c2nnc(Sc3nc4ccccc4o3)c3ccccc23)cc1	-12	107	·	·
CCOC(=O)C1CCN(S(=O)(=O)c2ccc3c(c2)CCO3)CC1	-23	99	105	89
CCc1cccc(NC(=O)CSc2nc3c(c(=O)[nH]2)CCCC3)c1	·	108	88	89
O=C(O)c1ccc(NC(=O)c2ccc(Cl)c(S(=O)(=O)N3CCCCCC3)c2)cc1	4	104	104	95
O=S1(=O)NC(c2ccc(F)c(F)c2)Nc2ccccc21 (stereo not drawn)	5	97	·	·
Cc1cccc(NC(=O)Cn2nc(-c3ccccc3)c3cnc4ccccc4c32)c1	·	95	79	91
COc1ccc(/C(=N/O)c2nccc3cc(OC)c(OC)cc23)cc1OC	-6	·	93	87
Cc1[nH]c(C)c(S(=O)(=O)N2CCC(C(=O)Nc3ccc4c(c3)OCO4)CC2)c1C(=O)N1CCCCC1	-40	108	·	·
COc1ccnc2c1c(=O)n(CC(=O)NC1CCCCC1)c(=O)n2C	8	104	·	·
COc1ccccc1C1(CCNC(=O)c2ccccc2C(=O)O)CCOC(C)(C)C1 (stereo not drawn)	-15	102	112	80
COc1ccccc1NC(=O)c1ccc(-c2ccccc2)s1	·	103	97	75
Cc1noc(C)c1CSc1nc(-c2cccs2)c(-c2cccs2)[nH]1	-26	·	94	89
Cn1ncc(Cl)c1C(=O)NC(=S)Nc1sc2c(c1C#N)CCCC2	-37	108	84	79
O=C(Nc1ccccc1)N(C1=NCCCCS1)c1ccccc1	-24	104	111	82
CCn1c(=O)c(N2CCC(C(=O)Nc3ccc(F)cc3)CC2)c(C)n(-c2ccccc2)c1=O	-33	108	·	·
Nc1c(C(=O)c2ccccc2)sc(Nc2ccc(Cl)c(Cl)c2)c1C(=O)Nc1ccccc1	·	100	82	83
COc1ccc(C(=O)COC(=O)CCn2c(C)csc2=O)cc1Cl	-16	·	97	94
O=C(CC1CCCC1)N1CCCN(c2ccc(=O)n(-c3ccccc3)n2)CC1	-29	99	·	·
CCOC(=O)c1c(C)[nH]c(C)c1S(=O)(=O)N(C)CC(=O)N1CCN(c2cccc(C)c2C)CC1	·	107	69	63
CCOc1ccnc(SCC(=O)CC(=O)c2ccccc2)c1C#N	-55	107	110	86
O=CNCCc1c[nH]c2ccccc12	95	93	100	81
COc1ccc(OCc2ccc(-c3nc(C#N)c(NCc4ccccc4)o3)o2)cc1	-25	99	98	84
O=C(c1cccs1)N(Cc1nc2sc3c(c2c(=O)[nH]1)CCCC3)C1CCCC1	3	103	126	114
COc1ccc(OC)c(-c2noc(N3CCN(c4cccc(C(F)(F)F)c4)CC3)n2)c1	·	103	107	110
CN(C(=O)C(Cl)Cl)c1ccc(OC(=O)c2ccco2)cc1	-14&-17	·	104	100
Cc1nn(-c2ccccc2)c2c1N(CC(=O)N1CCN(c3ccccc3F)CC1)C(=O)CS2	·	109	86	92
CC(C)COC(=O)n1c(=O)oc2ccc(S(=O)(=O)N3CCCCC3)cc21	-30	103	92	81
CCN1CCN(c2nnc(-c3ccc(C)cc3)c3ccccc23)CC1	-20	104	·	·
CCOc1ccc(C(=O)c2cn(Cc3ccc(Cl)cc3)c3cc(OC)c(OC)cc3c2=O)cc1	18	102	102	88
CN(C)CCCO[C@H]1[C@@H](C(O)CO)OC2OC(C)(C)O[C@@H]21 (stereo partly drawn)	-40	·	85	85
COc1cc(OC)c(NC(=O)c2cc(C(C)=O)n3ccccc23)cc1Cl	·	103	121	94
COc1ccc(N2C(=O)c3cc4occc4n3CC2(C)C(=O)NC2CCC(C)CC2)cc1OC (stereo not drawn)	-23	100	·	·
COc1ccc2c(=O)c(Oc3ccccc3)coc2c1	-14	100	104	93
O=C(NCCOc1ccc(Cl)cc1)c1cccs1	1	·	112	97
NC(=O)c1c(NC(=O)CSc2nc(-c3cccs3)cc(C(F)(F)F)n2)sc2c1CCC2	·	104	124	90
N#C/C(=C\c1cccnc1)c1cccs1	-57	106	121	82
CCCCNC(=O)CCCn1nc(-c2ccc(OC)cc2)c2c(C)onc2c1=O	-22	101	·	·
CNS(=O)(=O)c1cn(CC(=O)NC2CCCC2)cc1S(=O)(=O)NC	-26	103	94	95
COc1ccc(CNc2ccc(-c3ccc(OC)cc3)nn2)cc1	-7	104	119	90
CCC(CO)NC(=O)c1cc2sc3ccccc3c2s1 (stereo not drawn)	-17	·	79	49
O=C(O)CSc1nc2ccccc2n1Cc1ccccc1	8	99	·	·
O=C(CCCn1sc2ccccc2c1=O)NCCC1=CCCCC1	-10	98	94	77
CCc1ccccc1NC(=O)Cn1nnc(C(=O)NCc2ccccc2)c1N	·	100	105	70
Cc1cccc(COc2ccccc2C(=O)O)c1	-17	·	115	102
CC(C)(C)OC(=O)N/N=C\c1ccc[nH]1	-23	97	98	90
CCN(CC)S(=O)(=O)c1ccc(C(=O)Nc2nnc(-c3ccc(Cl)cc3Cl)s2)cc1	-12	103	·	·
O=C(OCc1ccc(F)cc1)c1cc(-c2ccco2)nc2ccccc12	-26	·	6.6*	3.6*
COc1ccc2c(C)cc(NN)nc2c1	2	·	112	61

Compound profiles, from the list above. Order of screens: HCMV UL50-53 inh | GIV-Gai inh | Sa growth inh | Sa growth inh second temp
Profile of CC(C)(C)OC(=O)N/N=C\c1ccc[nH]1 : -23 | 97 | 98 | 90
Profile of CCC(CO)NC(=O)c1cc2sc3ccccc3c2s1 (stereo not drawn) : -17 | · | 79 | 49
Profile of CNS(=O)(=O)c1cn(CC(=O)NC2CCCC2)cc1S(=O)(=O)NC : -26 | 103 | 94 | 95
Profile of COc1ccc(CNc2ccc(-c3ccc(OC)cc3)nn2)cc1 : -7 | 104 | 119 | 90
Profile of O=C(OCc1ccc(F)cc1)c1cc(-c2ccco2)nc2ccccc12 : -26 | · | 6.6* | 3.6*

Screening results deposited in PubChem BioAssay by ICCB-Longwood Screening Facility, Harvard Medical School.
